High-throughput results from PubChem BioAssay.
p53 mut binder: mutant p53 (human) binding | small molecule microarray binding, anti-GST fluorescence | calls only | 17,000 tested, 0.4% active | AID 624136;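 active = compounds whose four printed spots each glow above background more than chance allows, each with a p-value under 7%; compounds were printed on slides so no solution concentration is given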;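 note: about 2 pmol printed per array spot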
Myc binder: c-Myc (human) binding; P01106; small molecule microarray, His-c-Myc binding, anti-His fluorescence; calls only; 17,000 tested, 1.5% active;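 active = spot fluorescence over background with P-value below 7% in all four replicate spots, showing protein binding; compounds were printed on slides so no solution concentration is given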;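 note: score is binary with 100 for all four spots passing and 0 otherwise; about 2 pmol printed per array spot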
STAT3 SMM: STAT3 (human) binding | P40763 | Small molecule microarray, His-STAT3 binding, anti-His fluorescence | calls only | 17,000 tested, 0.2% active | AID 624138;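 active = compounds whose four printed spots each show fluorescence over background unusually high for their array block, chance value under 7%; compounds were printed on slides so no solution concentration is given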;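 note: about 2 pmol printed per array spot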
Target sequence (P40763 whole entry, looked up): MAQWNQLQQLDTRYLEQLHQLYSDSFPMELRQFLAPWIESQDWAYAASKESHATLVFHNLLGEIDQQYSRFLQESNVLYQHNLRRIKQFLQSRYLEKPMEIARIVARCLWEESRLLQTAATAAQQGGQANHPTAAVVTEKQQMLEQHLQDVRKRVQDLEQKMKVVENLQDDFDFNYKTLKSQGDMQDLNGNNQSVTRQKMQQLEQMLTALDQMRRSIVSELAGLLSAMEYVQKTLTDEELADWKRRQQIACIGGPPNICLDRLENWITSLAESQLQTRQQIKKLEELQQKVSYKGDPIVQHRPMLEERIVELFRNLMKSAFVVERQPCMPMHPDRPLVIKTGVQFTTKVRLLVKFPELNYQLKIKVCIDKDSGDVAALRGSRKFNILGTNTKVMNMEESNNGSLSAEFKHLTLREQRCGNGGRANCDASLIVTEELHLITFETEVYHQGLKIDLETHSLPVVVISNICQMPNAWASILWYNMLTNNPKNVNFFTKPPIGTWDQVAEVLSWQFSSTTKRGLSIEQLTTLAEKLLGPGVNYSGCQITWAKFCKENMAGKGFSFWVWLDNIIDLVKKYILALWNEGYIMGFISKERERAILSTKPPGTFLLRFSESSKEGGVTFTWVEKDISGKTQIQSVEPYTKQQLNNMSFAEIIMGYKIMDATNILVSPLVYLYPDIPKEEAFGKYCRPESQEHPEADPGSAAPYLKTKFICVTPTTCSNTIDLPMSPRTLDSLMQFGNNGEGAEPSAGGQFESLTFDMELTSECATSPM
ID4 SMM: ID4 (human) binding; P47928; small molecule microarray, Flag-ID4 binding, fluorescence F/B; calls only; 31,000 tested, 1.2% active;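 active = spot signal over background at p below 0.07 in all four prints; compounds were printed on slides so no solution concentration is given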;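 note: a binder raises fluorescence above local background on the spot; about 2 pmol printed per array spot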
Target sequence (P47928 whole entry, looked up): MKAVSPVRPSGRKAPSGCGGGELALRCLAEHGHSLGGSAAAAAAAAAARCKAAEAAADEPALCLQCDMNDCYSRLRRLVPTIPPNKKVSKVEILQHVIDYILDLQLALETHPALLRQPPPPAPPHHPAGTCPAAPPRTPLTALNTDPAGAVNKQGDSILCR
Calls only; i = inactive; x = no result given; + = active, no number. An excerpt; rates above refer to the full screens.

compound	p53 mut binder	Myc binder	STAT3 SMM	ID4 SMM
C[C@H](CO)N1C[C@H](C)[C@@H](CN(C)C(=O)Nc2ccc(C(F)(F)F)cc2)Oc2c(NC(=O)c3cnccn3)cccc2C1=O	i	i	i	x
Cc1cccc(NC(=O)CSc2nnc3n(C)c4ccccc4n23)c1	i	i	i	i
C[C@H](CO)N1C[C@H](C)[C@@H](CN(C)C(=O)Nc2ccccc2F)OCc2cn(nn2)CCCC1=O	i	i	i	i
CNC[C@@H]1Oc2c(NS(=O)(=O)c3ccc(OC)cc3)cccc2C(=O)N([C@H](C)CO)C[C@@H]1C	i	i	i	i
Cc1occc1-c1nnc(SCC(=O)Nc2cccc(Cl)c2)n1-c1ccccc1	i	i	i	i
O=S(=O)(NCCCO)c1ccc(Br)cc1	i	i	i	x
C[C@@H]1CCCCO[C@@H](CN(C)S(=O)(=O)c2ccccc2)[C@@H](C)CN([C@@H](C)CO)C(=O)c2cc(NC(=O)CCCN(C)C)ccc2O1	i	i	i	i
Cc1cc2c(CO)cc(SCC(O)C(=O)O)cc2o1 (stereo unspecified)	i	i	i	x
Clc1cccc(C=NC=Nc2cccc(Cl)c2)c1	i	i	i	i
C[C@H](CO)N1C[C@H](C)[C@@H](CN(C)C(=O)Nc2ccc3c(c2)OCO3)Oc2ccc(NC(=O)c3ccncc3)cc2C1=O	i	i	i	i
COc1ccc(CN(C)C[C@H]2Oc3ccc(NS(C)(=O)=O)cc3C(=O)N([C@H](C)CO)C[C@@H]2C)cc1	i	i	i	x
CCOc1ccccc1NC(=O)c1ccccc1N(C)S(=O)(=O)c1ccc(C)cc1	i	i	i	i
C[C@@H]1CN([C@H](C)CO)C(=O)c2cc(NS(=O)(=O)c3cccs3)ccc2O[C@@H](C)CCCCO[C@H]1CN(C)C(=O)C1CCCCC1	i	i	i	i
COc1ccc(NC(=O)C2CC=CCC2C(=O)Nc2ccccc2Cl)cc1 (stereo unspecified)	i	i	i	i
C/C(=C\C(=O)O)CCC1C(C)(O)CCC2C(C)(CO)CCCC12C (stereo unspecified)	i	i	i	i
C[C@@H]1CN([C@H](C)CO)C(=O)c2cccc(NC(=O)Nc3cccc4ccccc34)c2O[C@H]1CN(C)S(=O)(=O)c1cccs1	i	i	i	i
COC(=O)C(CC#Cc1ccc2c(c1)[C@]1(C(=O)N2)[C@H](C(N)=O)[C@H]2C(=O)O[C@H](c3ccccc3)[C@H](c3ccccc3)N2[C@@H]1c1ccccc1OCCO)C(=O)OC	+	i	i	i
Cc1ccccc1NC(=O)CSc1nc(N)c2c3c(sc2n1)COC(C)(C)C3	i	i	i	i
O=C(O)C1=C[C@@H](C2CCCCC2)C[C@@H](OCCCCO)O1	i	i	i	x
COc1cc(OC)c(C2=NOC(C(=O)NCc3ccco3)C2)cc1Cl (stereo unspecified)	i	i	i	i
C[C@@H]1CN([C@@H](C)CO)C(=O)Cc2cc(NC(=O)c3ccncc3)ccc2O[C@H]1CN(C)C(=O)Nc1ccccc1	i	i	i	i
C[C@@H]1CN([C@H](C)CO)C(=O)c2cc(N(C)C)ccc2O[C@H]1CN(C)C(=O)Nc1ccc2c(c1)OCO2	i	i	i	i
C[C@@H]1CN([C@H](C)CO)C(=O)c2cc(NC(=O)Nc3ccc(C(F)(F)F)cc3)ccc2O[C@H]1CN(C)S(=O)(=O)c1ccc(F)cc1	i	i	i	x
CSCCC(N)C(=O)NC(CC(C)C)C(=O)NC(Cc1ccccc1)C(=O)O (stereo unspecified)	i	i	i	i
CC(C)NC(=O)Nc1ccc2c(c1)C(=O)N([C@@H](C)CO)C[C@H](C)[C@H](CN(C)C(=O)c1ccccc1)OCCCC[C@@H](C)O2	i	i	i	i

compound	p53 mut binder	Myc binder	STAT3 SMM	ID4 SMM
O=c1cc(-c2ccc(O)cc2)oc2cc(O)c(C3OC(CO)C(O)C(O)C3O)c(O)c12 (stereo unspecified)	i	i	i	i
C[C@H](CO)N1C[C@H](C)[C@@H](CN(C)S(=O)(=O)c2ccc(F)cc2)Oc2c(NC(=O)c3ccncc3)cccc2C1=O	i	i	i	i
CCOC(=O)CCc1nc2ccc(O)cc2[nH]1	i	i	i	i
C[C@H]1CCCCO[C@H](CN(C)C(=O)Nc2ccccc2)[C@@H](C)CN([C@@H](C)CO)C(=O)c2cc(NC(=O)CCCN(C)C)ccc2O1	i	i	i	i
C[C@H]1CCCCO[C@@H](CN(C)C)[C@@H](C)CN([C@@H](C)CO)C(=O)c2cc(NC(=O)Nc3ccc4c(c3)OCO4)ccc2O1	i	i	i	i
CCOC(=O)c1cnc(Nc2nc3ccccc3o2)nc1CSc1nnc(C)s1	i	i	i	i
COc1ccc(S(=O)(=O)Nc2cccc3c2O[C@@H](CN(C)CC2CC2)[C@H](C)CN([C@@H](C)CO)C3=O)cc1	i	i	i	i
C[C@H](CO)N1C[C@H](C)[C@H](CN(C)C(=O)Nc2ccc3c(c2)OCO3)Oc2ccc(NC(=O)Nc3cccc4ccccc34)cc2C1=O	i	i	i	i
C/C(=C\Cc1c(O)cc2oc(C)cc(=O)c2c1O)CO[C@@H]1O[C@H](CO)[C@@H](O)[C@H](O)[C@H]1O	i	i	i	x
CNC[C@@H]1Oc2ccc(NC(=O)NC3CCCCC3)cc2C(=O)N([C@H](C)CO)C[C@H]1C	i	i	i	i
C[C@H](CO)N1C[C@H](C)[C@@H](CN(C)S(=O)(=O)c2cccs2)Oc2ccc(NC(=O)Nc3cccc4ccccc34)cc2CC1=O	i	i	i	x
Cc1noc(C)c1NC(=O)Nc1cccc2c1O[C@@H](CN(C)C(=O)Nc1c(C)noc1C)[C@@H](C)CN([C@@H](C)CO)C2=O	i	i	i	i
C[C@@H]1CN([C@H](C)CO)C(=O)c2cccc(NC(=O)C3CC3)c2O[C@@H]1CN(C)Cc1ccccc1	i	i	i	i
CC(C)NC(=O)N(C)C[C@H]1OCCCC[C@@H](C)Oc2ccc(NC(=O)c3ccccc3)cc2C(=O)N([C@@H](C)CO)C[C@H]1C	i	i	i	x
C[C@H]1CN([C@@H](C)CO)C(=O)c2cccc(NC(=O)Nc3ccc(F)cc3)c2O[C@@H]1CN(C)C	i	i	i	i
O=C(O)CCSc1nc(-c2ccccc2)c(-c2ccccc2)[nH]1	i	i	i	+
CC(C)NC(=O)Nc1ccc2c(c1)C(=O)N([C@@H](C)CO)C[C@@H](C)[C@@H](CN(C)S(=O)(=O)c1cn(C)cn1)OCCCC[C@H](C)O2	i	i	i	i
C[C@@H]1CN([C@@H](C)CO)C(=O)c2cccc(NC(=O)NC3CCCCC3)c2O[C@@H]1CN(C)S(=O)(=O)c1cn(C)cn1	i	i	i	i
Cc1cc(O)c2c(c1)C(=O)c1cc(OC3OC(COC(=O)CC(=O)O)C(O)C(O)C3O)cc(O)c1C2=O (stereo unspecified)	i	i	i	x
COC(=O)N(C)C[C@H]1OCc2cn(nn2)CCCC(=O)N([C@@H](C)CO)C[C@H]1C	i	i	i	i
C[C@H]1CN([C@@H](C)CO)C(=O)c2cc(NS(=O)(=O)c3cccs3)ccc2O[C@H]1CN(C)C(=O)Nc1ccc(F)cc1	i	i	i	i
COc1cccc(OCC(=O)Nc2cccc(Oc3ccc4c(c3)C(=O)NC4=O)c2)c1	i	i	i	i
Cc1cc(C)cc(N2C(=O)CS(=O)(=O)C2c2cccc([N+](=O)[O-])c2)c1 (stereo unspecified)	i	i	i	i
CC(C)NC(=O)Nc1ccc2c(c1)C(=O)N([C@H](C)CO)C[C@H](C)[C@@H](CN(C)C)O2	i	i	i	i
COc1ccc(CN(C)C[C@H]2Oc3ccc(NC(=O)Nc4ccc(F)cc4)cc3CC(=O)N([C@@H](C)CO)C[C@H]2C)cc1	i	i	i	i

Two entries from above, set out differently.
SMILES: CC(C)NC(=O)Nc1ccc2c(c1)C(=O)N([C@@H](C)CO)C[C@@H](C)[C@@H](CN(C)S(=O)(=O)c1cn(C)cn1)OCCCC[C@H](C)O2
  p53 mut binder: i; Myc binder: i; STAT3 SMM: i; ID4 SMM: i
SMILES: C[C@@H]1CN([C@@H](C)CO)C(=O)c2cccc(NC(=O)NC3CCCCC3)c2O[C@@H]1CN(C)S(=O)(=O)c1cn(C)cn1
  p53 mut binder: i; Myc binder: i; STAT3 SMM: i; ID4 SMM: i

(list continues)
structure	p53 mut binder	Myc binder	STAT3 SMM	ID4 SMM
CNC[C@@H]1OCCCC[C@H](C)Oc2ccc(NS(=O)(=O)c3cn(C)cn3)cc2C(=O)N([C@@H](C)CO)C[C@@H]1C	i	i	i	+
Cc1noc(C)c1S(=O)(=O)Nc1ccc2c(c1)C(=O)N([C@H](C)CO)C[C@H](C)[C@H](CN(C)C(=O)NC1CCCCC1)O2	i	i	i	i
C[C@H]1CN([C@@H](C)CO)C(=O)Cc2cc(NS(=O)(=O)c3ccccc3)ccc2O[C@@H]1CN(C)Cc1ccc2c(c1)OCO2	i	i	i	i
C[C@H](CO)N1C[C@H](C)[C@H](CN(C)Cc2ccc3c(c2)OCO3)Oc2c(NC(=O)c3ccncc3)cccc2C1=O	i	i	i	i
C[C@H]1CN([C@@H](C)CO)C(=O)CCCn2cc(nn2)CO[C@@H]1CN(C)S(=O)(=O)c1ccc(-n2cccn2)cc1	i	i	i	i
C[C@@H]1CN([C@@H](C)CO)C(=O)c2cc(NC(=O)Nc3ccc(C(F)(F)F)cc3)ccc2O[C@H]1CN(C)C(=O)NC1CCCCC1	i	i	i	i
C[C@H]1CCCCO[C@@H](CN(C)C(=O)Nc2ccccc2)[C@@H](C)CN([C@@H](C)CO)C(=O)c2cc(NC(=O)c3ccccc3)ccc2O1	i	i	i	i
C[C@@H]1CN([C@@H](C)CO)C(=O)c2cc(NC(=O)C3CCCCC3)ccc2O[C@@H]1CN(C)Cc1ccc(Oc2ccccc2)cc1	i	i	i	x
C[C@@H]1CN([C@@H](C)CO)C(=O)c2cc(NC(=O)Nc3cccc4ccccc34)ccc2O[C@H]1CN(C)C(=O)NC1CCCCC1	i	i	i	i
Cc1noc(C)c1NC(=O)N(C)C[C@@H]1Oc2ccc(NS(=O)(=O)c3cn(C)cn3)cc2C(=O)N([C@@H](C)CO)C[C@H]1C	i	i	i	i

Limited to ID4 SMM, for some of the entries so far:
canonical_smiles | ID4 SMM
CNC[C@@H]1OCCCC[C@H](C)Oc2ccc(NS(=O)(=O)c3cn(C)cn3)cc2C(=O)N([C@@H](C)CO)C[C@@H]1C | +
CCOC(=O)c1cnc(Nc2nc3ccccc3o2)nc1CSc1nnc(C)s1 | i
CNC[C@@H]1Oc2c(NS(=O)(=O)c3ccc(OC)cc3)cccc2C(=O)N([C@H](C)CO)C[C@@H]1C | i
Cc1cccc(NC(=O)CSc2nnc3n(C)c4ccccc4n23)c1 | i
O=c1cc(-c2ccc(O)cc2)oc2cc(O)c(C3OC(CO)C(O)C(O)C3O)c(O)c12 (stereo unspecified) | i

Additional compounds follow.
structure	p53 mut binder	Myc binder	STAT3 SMM	ID4 SMM
COC(=O)c1ccc(CSc2n[nH]c(-c3ccccc3OC)n2)o1	i	i	i	i
Cc1ccc(S(=O)(=O)N(C)C[C@@H]2OCCCC[C@H](C)Oc3ccc(NC(=O)Nc4ccc5c(c4)OCO5)cc3C(=O)N([C@@H](C)CO)C[C@H]2C)cc1	i	i	i	x
Cc1noc(C)c1NC(=O)Nc1ccc2c(c1)C(=O)N([C@@H](C)CO)C[C@H](C)[C@@H](CN(C)C(=O)Nc1c(C)noc1C)O2	i	i	i	i
Cc1cc(C)c2nc(-c3cccnc3)cc(C(=O)Nc3c(C)nn(Cc4ccccc4C)c3C)c2c1	i	i	i	i
C[C@@H]1CN([C@H](C)CO)C(=O)c2cc(NS(=O)(=O)c3cn(C)cn3)ccc2O[C@H]1CN(C)Cc1ccccc1	i	i	i	i
CNC[C@H]1Oc2ccc(NC(=O)Nc3cccc4ccccc34)cc2CC(=O)N([C@H](C)CO)C[C@H]1C	i	i	i	i
C[C@@H]1CCCCO[C@@H](CN(C)Cc2ccc(C(F)(F)F)cc2)[C@@H](C)CN([C@@H](C)CO)C(=O)c2cc(NS(=O)(=O)c3cccs3)ccc2O1	i	i	i	x
CNC[C@H]1Oc2ccc(NC(=O)CCC(F)(F)F)cc2C(=O)N([C@@H](C)CO)C[C@@H]1C	i	i	i	i
Cc1noc(C)c1NC(=O)N(C)C[C@@H]1OCCCC[C@H](C)Oc2ccc(NS(=O)(=O)c3cn(C)cn3)cc2C(=O)N([C@@H](C)CO)C[C@@H]1C	i	i	i	i
CNC[C@@H]1OCCCC[C@@H](C)Oc2ccc(NS(=O)(=O)c3c(C)noc3C)cc2C(=O)N([C@H](C)CO)C[C@H]1C	i	i	i	i

structure	p53 mut binder	Myc binder	STAT3 SMM	ID4 SMM
Cc1noc(C)c1S(=O)(=O)Nc1ccc2c(c1)CC(=O)N([C@H](C)CO)C[C@@H](C)[C@H](CN(C)C(=O)Nc1ccc(C(F)(F)F)cc1)O2	i	i	i	i
O=c1[nH]c(SCc2ccccc2[N+](=O)[O-])nc2ccccc12	i	i	i	i
O=c1c2ccccc2[nH]c(=S)n1CCN1CCC(=C(c2ccc(F)cc2)c2ccc(F)cc2)CC1	i	+	i	i
O=c1c(O[C@@H]2OC[C@H](O)[C@H](O)[C@H]2O)c(-c2ccc(O)cc2)oc2cc(O)cc(O)c12	i	i	i	i
Cc1noc(C)c1S(=O)(=O)N(C)C[C@@H]1OCCCC[C@@H](C)Oc2ccc(NC(=O)CCCN(C)C)cc2C(=O)N([C@@H](C)CO)C[C@H]1C	i	i	i	i
